KCNQ2 block: KCNQ2 potassium channel inhibitors, primary screen, cell-based, CHO-K1, FluxOR thallium flux, B-score (AID 2156); O88943; 310,000 compounds, 1.1% hits; 20 min; stronger effect = lower value; only compounds with negative scores are shown here; some inactives read as strong as hits; B-score at 10 µM;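 active = fluorescence ratio B-score at most minus 3 library SDs, with starting brightness B-score within 2 library SDs, cut at about -5.5 in these data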
Target sequence (O88943 whole entry, looked up): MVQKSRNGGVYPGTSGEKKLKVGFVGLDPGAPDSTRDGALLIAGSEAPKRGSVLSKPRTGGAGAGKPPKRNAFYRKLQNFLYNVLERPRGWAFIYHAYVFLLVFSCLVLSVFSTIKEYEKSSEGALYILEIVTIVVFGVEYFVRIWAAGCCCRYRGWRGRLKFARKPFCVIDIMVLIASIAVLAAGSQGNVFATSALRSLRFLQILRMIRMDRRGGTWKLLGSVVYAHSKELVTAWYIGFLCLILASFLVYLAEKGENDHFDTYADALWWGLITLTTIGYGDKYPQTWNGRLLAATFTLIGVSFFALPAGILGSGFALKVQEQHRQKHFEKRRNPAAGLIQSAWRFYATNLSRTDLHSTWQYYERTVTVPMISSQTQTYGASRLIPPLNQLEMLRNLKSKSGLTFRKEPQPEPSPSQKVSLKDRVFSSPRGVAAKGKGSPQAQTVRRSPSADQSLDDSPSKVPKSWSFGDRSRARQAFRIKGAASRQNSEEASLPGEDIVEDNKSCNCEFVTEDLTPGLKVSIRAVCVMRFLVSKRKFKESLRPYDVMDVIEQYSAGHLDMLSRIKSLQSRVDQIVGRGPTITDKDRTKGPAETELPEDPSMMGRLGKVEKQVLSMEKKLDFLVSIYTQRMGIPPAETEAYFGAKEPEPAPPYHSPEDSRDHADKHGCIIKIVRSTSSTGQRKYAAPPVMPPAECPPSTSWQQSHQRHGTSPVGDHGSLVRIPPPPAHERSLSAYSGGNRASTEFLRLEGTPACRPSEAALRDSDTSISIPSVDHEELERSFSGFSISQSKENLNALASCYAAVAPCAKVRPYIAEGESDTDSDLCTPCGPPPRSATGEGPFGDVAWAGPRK
KCNQ2 block baseline: also measured in KCNQ2 block; calls as there; B-score; measured here: initial fluorescence intensity artifact check;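 brightness before thallium and not channel activity; 0 = typical well and far values either way flag optical interference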
* = called active by the depositor; i = inactive. The list is partial; the hit share may differ from the screen's.

SMILES	KCNQ2 block	KCNQ2 block baseline
COC(=O)c1ccccc1-n1c(CCC(=O)O)ccc1-c1ccc(F)cc1	i	1.9
Fc1ccc(OCCOCCN2CCNCC2)cc1	i	-0.8
COc1ccc(/C=N/NC(=O)C[n+]2ccccc2)c(OC)c1	i	-0.66
Cc1ccc(C(=O)c2c(NC(=O)c3ccncc3)sc3c2CCCC3)cc1	i	2.8
CC1NC(=S)N(Cc2ccccc2)C1=O (stereo not given)	i	-1.1
O=C(c1sccc1-c1ccccc1)N1CCN(S(=O)(=O)c2ccccc2)CC1	i	-0.06
CCN(CC)S(=O)(=O)c1ccc(Oc2ccc(S(=O)(=O)N(CC)CC)cc2)cc1	i	2
COc1cc(/C=N\NC(=O)c2cccc(Cl)c2)ccc1Oc1ccc([N+](=O)[O-])cn1	i	0.64
Cc1ccc2nc(SCC(=O)NCc3ccco3)c(C)cc2c1	i	0.66
COc1ccc(-n2c(=O)[nH]c3cc(C(=O)NCCc4ccc(Cl)cc4)ccc3c2=O)cc1OC	i	0.15
COc1ccc(C(C(=O)NC(C)(C)C)N(Cc2ccco2)C(=O)CCC(=O)Nc2ccccn2)cc1 (stereo not given)	i	-0.3
COc1ccc(-c2csc(NC(C)c3nc4cc(C(F)(F)F)ccc4n3CCOCCO)n2)cc1 (stereo not given)	i	0.98
Cc1ccc(C(=O)CSc2nnc(COc3cc(C)cc(C)c3)o2)cc1	i	0.14
CC(C(=O)Nc1ccccc1Cl)c1ccc([N+](=O)[O-])cc1 (stereo not given)	i	0.05
O=C(O)CC(CC(=O)O)(C(=O)O)c1ccccc1	i	-0.86
COc1cc(NC(=O)c2cc(-c3cccs3)on2)cc(OC)c1OC	i	-0.77
Cc1ccc(C2C3=C(CCCC3=O)OC3=C2C(=O)CCC3)cc1	i	0.58
Cc1nc2c(c(=O)n1CCC(C)C)c1nc3ccccc3nc1n2CC1CCCO1 (stereo not given)	i	-0.03
COc1cc([N+](=O)[O-])ccc1NC(=O)CCCOc1ccc(C)cc1	i	0.09
CCOc1ccc(C(=O)Nc2ccc3nc(N4CCN(CC)CC4)cc(C)c3c2)cc1	i	0.01
CCc1nc(NCCc2ccccn2)c2nnn(Cc3ccccc3F)c2n1	i	0.47
COc1cc(NC(=O)CSc2nc3[nH]ncc3c(=O)n2-c2ccc(Cl)cc2)cc(OC)c1	i	0.51
Cc1nnc(SCc2ccc3c(c2)OCO3)s1	i	-0.98
Cc1ccccc1N(CC(=O)NC(C)(C)C)C(=O)CCC(=O)Nc1nccs1	i	-0.02
COc1ccccc1/C=C1\SC(=S)N(CCC(=O)N2CCCCC2CCO)C1=O (stereo not given)	i	-0.25
O=C(CCC1CCCN(C(=O)Cc2ccc(F)cc2)C1)N1CCN(c2ccccn2)CC1 (stereo not given)	i	-0.01
O=C(CSCc1ccc(Cl)cc1)Nc1ccc(S(=O)(=O)N2CCOCC2)cc1	i	1.3
Nc1nc(NCc2ccccc2)nc(NCc2ccccc2)c1[N+](=O)[O-]	i	0.39
O=C1CCC(=O)N1c1ccc(NC2CCN(Cc3ccccc3)CC2)c([N+](=O)[O-])c1	i	2.9
Cc1noc(C)c1COC(=O)c1cc2ccccc2cc1O	i	-2.6
COc1cc(C(=O)NCC(c2ccco2)N2CCOCC2)cc(OC)c1OC (stereo not given)	i	-0.06
CCCCCC(=O)NN=C1CCN(Cc2ccccc2)CC1	i	-0.55
COc1ccccc1C1CC(=O)NC(SCC(=O)Nc2ccccc2)=C1C#N (stereo not given)	i	-0.29
O=C(CSc1nnc(-c2cccs2)o1)c1cccs1	i	0.34
COc1cc(CC(=O)OCc2ccccc2F)cc(OC)c1OC	i	-1.1
COc1cc(OC)c(OC)cc1CNc1cc(C)ccc1OC	i	0.02
CC(=O)c1ccc(NC(=S)NCc2cccnc2)cc1	i	1.7
O=C(O)CSc1nnc(-c2ccccc2Br)n1-c1cccc(C(F)(F)F)c1	i	4.2
Cc1ccc(S(=O)(=O)N(C)c2cc(S(N)(=O)=O)c(C)cc2C)cc1	i	-0.64
CC1CCc2cc(F)cc3c(=O)c(C(=O)O)cn1c23 (stereo not given)	i	3.7
CC1(C)C(=O)Nc2ccccc2N1C(=O)Cn1ncc(Cl)c(Cl)c1=O	i	-0.1
C=CCNC(=O)c1ccccc1NC(=O)c1ccccc1	i	1.5
CCCN1CCN(C(=O)Nc2ccc(C(=O)OCC)cc2)CC1	i	1.6
Cc1nnc(NC(=O)CSc2ccc3nnc(-c4cccnc4)n3n2)s1	i	0.89
O=C(CSc1ccccc1)N1CCN(S(=O)(=O)c2cccs2)CC1	i	-0.25
Cn1c(Cc2ccccc2)nnc1SCc1cc(=O)n2ccsc2n1	i	-0.44
Cc1nc2cc(NC(=O)N3c4ccccc4CC3C)ccc2o1 (stereo not given)	i	1.4
Cc1ccc(OCc2cc(C(=O)NCC3COCCO3)no2)cc1C (stereo not given)	i	0.91
CCOc1ccc(CCNC(=O)COC(=O)/C=C/c2ccc(OC(F)F)c(OC)c2)cc1OCC	i	-0.2
COc1cccc(OCC(=O)N(C)Cc2nc(-c3ccccc3)no2)c1	i	1.3
COn1c(SC2CCCCC2)nc2ccccc2c1=O	i	1.9
COc1cc(-n2nnnc2SC)c(OC)cc1Cl	i	-1
CC(Cc1ccccc1)N1C(=O)c2cccc([N+](=O)[O-])c2C1=O (stereo not given)	i	-0.05
CCCc1nnc(SCC(=O)Nc2ccc(Cl)cc2Cl)o1	i	-0.37
CC(NC(=O)Cn1nc(C(=O)O)c2ccccc2c1=O)C12CC3CC(CC(C3)C1)C2 (stereo not given)	i	-1.1
Cc1nc(Nc2c(Cl)cccc2Cl)sc1C(=O)Nc1ccccc1	i	0.01
O=C(CSc1nnc(-c2ccc(S(=O)(=O)N3CCCC3)cc2)o1)NCc1ccccc1	i	-1.4
Cc1sc2nc(CN3CCOCC3)nc(N3CCOCC3)c2c1C	i	-1
Cc1ccc(OCCSc2ncccn2)c(C)c1	i	-0.14
CC(C)N=C1SCC(C)(/C=N/O)S1 (stereo not given)	i	1

Complete entries from above:
`CC(C)N=C1SCC(C)(/C=N/O)S1` (stereo not given) as listed: KCNQ2 block = i; KCNQ2 block baseline = 1
`Cc1ccc(OCc2cc(C(=O)NCC3COCCO3)no2)cc1C` (stereo not given) as listed: KCNQ2 block = i; KCNQ2 block baseline = 0.91
`C=CCNC(=O)c1ccccc1NC(=O)c1ccccc1` as listed: KCNQ2 block = i; KCNQ2 block baseline = 1.5

Next part:
SMILES	KCNQ2 block	KCNQ2 block baseline
O=C(/C=C/c1c(Cl)cccc1Cl)NCCc1ccccc1	i	0.67
Cc1ccsc1/C=C(\C(=O)c1ccc(OC(C)C)cc1)c1nc2ccccc2o1	i	0.07
COc1ccc(CNC(=O)CN(Cc2ccc(Cl)cc2)S(C)(=O)=O)cc1	i	-0.42
CCOc1ccc(Nc2oc(-c3ccccc3Cl)nc2C#N)cc1	i	0.56
COc1ccc(-c2nc(C#N)c(N3CCc4ccccc4C3)o2)cc1OC	i	-1.1
CCN(CC(=O)NCCc1ccc(Cl)cc1)Cc1nc2ccccc2c(=O)[nH]1	i	-1.4
C=CCn1c(SCC#N)nnc1-c1ccc2ncccc2c1	i	0.04
COc1ccc(CCNC(=O)C2CCCN(c3nn4c(=O)cc(C)nc4s3)C2)cc1OC (stereo not given)	i	-0.07
COc1ccc(N2CCN(C(=O)CCc3cc(OC)c(OC)c(OC)c3)CC2)cc1	i	-0.85
CCN1CCN(c2ccc(NC(=O)c3ccccc3F)cc2Cl)CC1	i	0.77
Cc1cc(C)nc(NS(=O)(=O)c2ccc(N/C=C\C(=O)c3ccc(Cl)cc3)cc2)n1	i	2.7
CC1(C)Cc2ccccc2C(/C(C#N)=N/O)=N1	i	1.2
CN(C)S(=O)(=O)N1CCC(Oc2cccc(C(=O)N3CCCCCC3)c2)CC1	i	-0.18
COc1ccc(Nc2nc(-c3ccccc3)cs2)cc1	i	3.7
COc1ccc(C(=O)OCC(=O)Nc2cccc(C(C)=O)c2)cc1OC	i	0.12
Cc1ccc(-n2c(O)c(C=NC3CCS(=O)(=O)C3)c3ccccc3c2=O)c(C)c1 (stereo not given)	i	-2.5
Cc1cc(C)cc(N2C(=O)N(c3ccccc3C)C3CS(=O)(=O)CC32)c1 (stereo not given)	i	2.6
COc1c(Cl)cc(C(=O)NCc2ccco2)cc1Cl	i	-0.68
Cc1nc(SCC(=O)Nc2ccc3c(c2)OCCO3)nc(C)c1C	i	-1.7
CCOC(=O)c1cccc(NC(=O)c2ccccc2C)c1	i	2.3
COc1ccc(C(CNC(=O)c2ccc(-c3ccccc3)cc2)N(C)C)cc1OC (stereo not given)	i	2.6
CC(=O)n1nc(-c2ccc(C)cc2)nc1NCc1ccc(F)cc1	i	0.98
C/C(=N\NC(=O)c1ccccc1)c1ccccc1Br	i	1.1
Cc1ccc(C2Nc3cccc4cccc(c34)N2)s1	i	1.1
O=c1[nH][nH]cc1C=Nc1ccc(Oc2ccccc2)cc1	i	-0.78
Cc1ccc(-n2nc(C(=O)N3CCN(C)CC3)c3c4ccccc4n(C)c3c2=O)cc1	i	-1.4
Nc1nc(SCC(=O)NCC2CCCO2)[nH]c(=O)c1NC(=O)c1ccc(F)c(F)c1 (stereo not given)	i	-0.1
Cc1cc(CN2CCCC(N3CCc4ccccc4C3)C2)cc(C)c1O (stereo not given)	i	-0.09
COc1ccc(OC)c(NC(=O)c2cc(-c3cc(Cl)ccc3O)n[nH]2)c1	i	-1.6
Cc1ccc(Cn2c(C(CO)Nc3nc(-c4ccc(F)cc4)cs3)nc3ccccc32)cc1 (stereo not given)	i	-2.1
O=C(CN1C(=O)S/C(=C/c2ccncc2)C1=O)N1CCOCC1	i	0.79
COc1ccc(O)c(C(=O)c2cc(C(=O)NCCc3ccccc3)c(=O)n(CCc3ccccc3)c2)c1	i	-0.33
CN(C)c1ccc(C(=O)NCC2CCCO2)cc1 (stereo not given)	i	-0.35
COc1ccc(CC(=O)OCC(=O)Nc2ncc(Cl)cc2Cl)cc1	i	-2.3
Cn1cc(S(=O)(=O)c2ccccc2)c(=O)c2cc(F)c(N3CCOCC3)cc21	i	0.95
CCOc1ccccc1/C=N/n1c(C2CCCCC2)n[nH]c1=S	i	-0.79
CC(=O)Nc1cccc(NC(=O)Cc2ccc3ccccc3c2)c1	i	1.1
COc1ccc(NS(=O)(=O)c2cccc(C(=O)Nc3ccccc3C(=O)O)c2)cc1	i	2.1
Cc1nc2ccc(NC(=O)Cc3ccc4c(c3)OCCO4)cc2s1	i	3.2
O=c1[nH]ccc2c(O)cccc12	i	-0.55

Individual results from the entries so far:
`COc1ccc(C(CNC(=O)c2ccc(-c3ccccc3)cc2)N(C)C)cc1OC` (stereo not given) – KCNQ2 block baseline = 2.6
`Cc1ccc(-n2nc(C(=O)N3CCN(C)CC3)c3c4ccccc4n(C)c3c2=O)cc1` – KCNQ2 block baseline = -1.4

Continued.
SMILES	KCNQ2 block	KCNQ2 block baseline
CCCn1ncc(CN2CCC(n3nccc3NC(=O)c3ccccc3OC)CC2)c1C	i	-0.7
CCn1cnc2cc(NCc3ccc(OC)cc3)ccc21	i	-0.51
CC(=O)c1ccccc1C(=O)N1CCCC(CNC(=O)c2ccccc2Cl)C1 (stereo not given)	i	0.55
Cc1ccccc1C(N)c1ccncc1 (stereo not given)	i	-2.5
COc1ccc(S(=O)(=O)NCC(c2cccnc2)N2CCN(Cc3ccccc3)CC2)cc1 (stereo not given)	i	-0.22
CC(C(=O)Nc1ccc(F)cc1Cl)N(C)CCOc1ccccc1 (stereo not given)	i	-1
O=C(Cc1ccccc1)NCc1n[nH]c(=S)n1-c1ccccc1	i	0.8
COC(=O)c1cnn(-c2ccc(C)c(C)c2)c1-n1cccc1	i	1.2
Cn1c(=O)[nH]c(=O)c2c1nc(SCc1ccccc1Cl)n2CC(N)=O	i	0.05
O=C(NNC1CC(c2ccccc2)=NN1C(=O)c1ccccc1)c1ccccc1 (stereo not given)	i	-1.4
N#Cc1sc2nc(C3CC3)cc(-c3ccc(Cl)cc3)c2c1N	i	0.01
Cc1cc(C)n(CCn2nc(C)cc2C)n1	i	2.2
COc1cccc(N2C(=O)C3C(C2=O)C3(c2ccccc2)c2ccccc2)c1 (stereo not given)	i	-1.6
COC(=O)c1ccc(CSc2nnc(Nc3ccc(OC)cc3)s2)o1	i	-0.38
O=C(CN(Cc1ccco1)C(=O)Cn1nnc(-c2cccs2)n1)NCc1ccccc1	i	1.6
O=C(NC1CCCCCC1)C1c2ccccc2C(=O)N1Cc1ccco1 (stereo not given)	i	0.46
CC(=O)N/C(=C/c1ccc(Cl)cc1)C(=O)NCCc1c[nH]c2ccccc12	i	0.24
Cc1nc2sccn2c1-c1csc(NCc2ccccc2)n1	i	-0.34
CC1(C)Cc2cccc(C(=O)NC3CCN(Cc4ccccc4)CC3)c2O1	i	-0.02
O=[N+]([O-])c1ccc(-n2cccc2/C=N/Nc2nc(N3CCCCC3)nc(N3CCCCC3)n2)cc1	i	-0.29
CN(C)CCCNC(=S)Nc1ccc(Br)cc1	i	0.01
CC(C)(C)NC(=O)c1ccc(COCC(F)(F)F)o1	i	0.84
Cc1cc(N2CCCCC2)nc(SCC(=O)c2ccccc2)n1	i	-0.34
Cc1ccc(S(=O)(=O)N(CC(=O)N/N=C/c2ccccc2C(=O)O)c2cc(Cl)cc(Cl)c2)cc1	i	-0.02
CCOC(=O)C(CCSC)Nc1nc(Cl)nc(Nc2ccc(Cl)cc2)n1 (stereo not given)	i	0.48

Given field by field: 4 of the compounds above.
> CN(C)CCCNC(=S)Nc1ccc(Br)cc1
  KCNQ2 block = i; KCNQ2 block baseline = 0.01

> CCOC(=O)C(CCSC)Nc1nc(Cl)nc(Nc2ccc(Cl)cc2)n1 (stereo not given)
  KCNQ2 block = i; KCNQ2 block baseline = 0.48

> CC(C)(C)NC(=O)c1ccc(COCC(F)(F)F)o1
  KCNQ2 block = i; KCNQ2 block baseline = 0.84

> Cc1cc(N2CCCCC2)nc(SCC(=O)c2ccccc2)n1
  KCNQ2 block = i; KCNQ2 block baseline = -0.34

Screening data from PubChem BioAssay.
